Assay outcomes (PubChem)
NPR1 antag = blocks ANP-stimulated signaling of human Npr1 receptor. HEK293 hNpr1 GloSensor cGMP, ANP-stimulated luminescence. Potency, µM (titrated, usually from 46.3 µM), without a hit: at the top dose activity change, negative = inhibition, most hits filed as inhibitors. 76,000 tested, 1.6% active. AID 1347048; active = well fitted inhibition curve with a large enough effect; inconclusive = small, poorly fitted or top-dose-only effect; inactive = no such curve, though single readings can be large or run the other way;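 also: nearly all actives have a fitted effect of over 60% in size; nearly all hits also lower the signal before the agonist is added; a reference antagonist and vehicle were the controls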
Target sequence (P16066 whole entry, looked up): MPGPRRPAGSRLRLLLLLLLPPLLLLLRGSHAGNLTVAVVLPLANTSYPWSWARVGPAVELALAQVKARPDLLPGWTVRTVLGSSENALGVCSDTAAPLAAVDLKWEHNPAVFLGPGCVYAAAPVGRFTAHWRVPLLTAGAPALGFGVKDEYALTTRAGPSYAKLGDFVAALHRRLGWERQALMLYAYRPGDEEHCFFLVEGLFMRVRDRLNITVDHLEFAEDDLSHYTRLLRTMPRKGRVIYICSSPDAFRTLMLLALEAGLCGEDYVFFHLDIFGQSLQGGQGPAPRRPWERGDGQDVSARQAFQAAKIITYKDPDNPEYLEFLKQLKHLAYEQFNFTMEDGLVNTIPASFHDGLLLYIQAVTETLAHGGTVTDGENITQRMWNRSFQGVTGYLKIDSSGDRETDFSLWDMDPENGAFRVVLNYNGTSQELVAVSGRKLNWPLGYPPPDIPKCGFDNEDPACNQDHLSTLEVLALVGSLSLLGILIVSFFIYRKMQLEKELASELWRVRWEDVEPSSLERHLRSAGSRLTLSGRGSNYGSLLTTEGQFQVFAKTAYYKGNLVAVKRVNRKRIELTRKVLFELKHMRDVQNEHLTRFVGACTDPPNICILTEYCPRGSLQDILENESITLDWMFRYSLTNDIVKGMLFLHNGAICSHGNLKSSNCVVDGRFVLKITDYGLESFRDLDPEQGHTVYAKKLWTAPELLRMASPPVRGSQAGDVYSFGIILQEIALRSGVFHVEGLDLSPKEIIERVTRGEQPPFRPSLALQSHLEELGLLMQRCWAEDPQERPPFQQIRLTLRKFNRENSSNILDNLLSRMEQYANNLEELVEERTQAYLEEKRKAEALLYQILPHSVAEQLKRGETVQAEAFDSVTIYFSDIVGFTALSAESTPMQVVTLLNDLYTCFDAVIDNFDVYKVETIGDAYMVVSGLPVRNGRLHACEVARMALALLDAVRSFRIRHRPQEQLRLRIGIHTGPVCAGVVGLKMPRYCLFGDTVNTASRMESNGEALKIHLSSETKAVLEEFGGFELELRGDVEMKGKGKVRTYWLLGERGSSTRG
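HEK293 cells stably expressing human Npr1 and cGMP GloSensor pGS-40F, loaded 2 h with 2% GloSensor reagent, given compound 30 min at room temperature. Luminescence read before and 20 min after 0.1 nM hNppA.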
* hit, by the source's call; u = inconclusive; [ ] = remark or other dose. % is scaled to controls: 0 for no effect and ±100 for the full control effect; potency is read from the fitted curve at half-maximal effect. A portion of the library (hit frequency here may not be typical).

NPR1 antag	mol
-1%	O=C1NCCC[C@@H]1NC(=O)[C@@H]1CN(C(=O)C2CCCCC2)CCN1C(=O)c1cccc(F)c1
9%	COc1cccc([S+](=O)([O-])N2CC(Oc3ccc(F)cc3C)C2)c1
0%	CCC(=O)N1CCc2ccc(OCc3nc(C(=O)NCCOC)co3)cc2C1c1ccc(C)cc1 (stereo unspecified)
2%	COc1ccc(Cn2c(C3CCN(C(=O)Cc4ccc(C)cc4)CC3)n[nH]c2=O)cc1
4%	O=C(NCc1ccc2c(c1)OCO2)c1cnc2c(c1)N(C(=O)CCc1ccccc1)CCC2
-11%	COc1ccc(CNC(=O)Cn2c(C)cc3nc4n(c(=O)c32)CCCCC4)cc1
-10%	Cc1nc(C)c(C(=O)NCCn2c(C)cnc2-c2cccnc2)s1
7%	O=C(NCc1cccc(F)c1)N1CCC(OC2CCN(Cc3ccccc3)CC2)CC1
-1%	Cc1cccc(-c2noc(-c3nnn4c3COC(c3ccc(F)cc3)C4)n2)c1 (stereo unspecified)
7%[70.6 µM]	N#Cc1ccc(CN2CCC3(CC2)COc2ccccc2NC3=O)cc1
-8%	COc1ccc(C(=O)N[C@@H]2CCC[C@@H]2C(=O)N2CCN(c3ccc(Cl)cc3)CC2)cn1
1%	O=C(COc1ccccc1)N1CCC2(CC1)NC(=O)N(c1ccccc1Cl)N2
3%	N#Cc1cccc(CN2CCC3(CCN(Cc4ccncc4)CC3)C(CO)C2)c1 (stereo unspecified)
20%	Cc1cc(C)n(CCC(=O)N2CCCC(Cc3nc(C4CCOCC4)no3)C2)n1 (stereo unspecified)
-1%	CCCCC(=O)N(CCC)CC1CCOC1 (stereo unspecified)
2%	COc1cccc(NC(=O)N2CCC(Cn3cc(C4CCCC4)nn3)CC2)c1
-10%	O=C(NCCc1ccccc1)C1CN(S(=O)(=O)C2CC2)CC12CCCCC2 (stereo unspecified)
7%	COc1ccc(CN2CCC([C@@H]3CNC[C@H]3CO)CC2)c(Cl)c1OC
0%	COC[C@]1(O)CCN(C(=O)C2(c3ccc(OC)cc3)CC2)CC1(C)C
-1%	CNC(=O)[C@@H]1C[C@@H](n2cc(CN(C)C(=O)c3cc4ccccc4s3)nn2)CN1
3%[70.6 µM]	Cc1nnc(-c2cc(-c3cnn(C)c3)ccn2)n1-c1ccccc1
-18%[70.6 µM]	Cc1cc(-c2cnc(Nc3ccc(F)cc3)c3c2CCO3)ccn1
-24%	Cc1ccc(C(=O)N2CCC(CCC(=O)NCCc3c[nH]c4ccccc34)CC2)cc1
-1%	Cc1nn(C)cc1C(=O)N(Cc1cccc(Cl)c1)CC(C)C
-1%[70.6 µM]	COC(=O)N1CC2(Cc3ccccc3N([S+](C)(=O)[O-])C2)C1
-3%	CCC1(N2CCN(S(=O)(=O)c3ccc(F)cc3F)CC2)CCN(C(=O)C(C)C)C1 (stereo unspecified)
8%[70.6 µM]	CC[C@H]1CN(C(=O)Nc2cccc(OC)c2)CC[C@H]1CC(=O)NCCN1CCOCC1
-12%	CCC(=O)N1CCCCCCNC(=O)[C@@H]2C[C@@H](C(=O)NCCc3c[nH]c4ccccc34)C[C@@H]21
-3%	O=C(NC1CCN(c2ccc(F)cc2)C1=O)c1ccc(Cl)s1 (stereo unspecified)
-4%	O=C(c1ccc(N2CC3CC(C2)[C@H]2CCCC(=O)N2C3)nc1)N1CCC(Cc2ccccc2)CC1 (stereo partly specified)

Next part, starting with the last 4 of the part before.
NPR1 antag	mol
8%[70.6 µM]	CC[C@H]1CN(C(=O)Nc2cccc(OC)c2)CC[C@H]1CC(=O)NCCN1CCOCC1
-12%	CCC(=O)N1CCCCCCNC(=O)[C@@H]2C[C@@H](C(=O)NCCc3c[nH]c4ccccc34)C[C@@H]21
-3%	O=C(NC1CCN(c2ccc(F)cc2)C1=O)c1ccc(Cl)s1 (stereo unspecified)
-4%	O=C(c1ccc(N2CC3CC(C2)[C@H]2CCCC(=O)N2C3)nc1)N1CCC(Cc2ccccc2)CC1 (stereo partly specified)
4%[70.6 µM]	O=c1c2nc(Nc3cccnc3)ccc2ncn1-c1ccc(F)cc1F
3%	CC(=O)N1CCN(Cc2ccc(OCCCN3CCOCC3)cc2)CC1
3%[70.6 µM]	O=C1Cc2c(-c3ccsc3)n[nH]c2CN1CC1CCOCC1
6%	CN(CC1CCOC1)C(=O)c1ccc(F)cc1Cl (stereo unspecified)
-11%	N#Cc1cccc(-c2cn3c(n2)N(C(=O)c2ccncc2)CCC3)c1
2%	Cc1ccc(NC(=O)Cn2ccn3nc(-c4ccc(F)cc4)c(CO)c3c2=O)cc1C
-12%	CCNC(=O)[C@@H]1C[C@H](NC(=O)c2cc(C)on2)CN1Cc1cnn(CC)c1
5%	CC(C)NC(=O)N1CCOc2ccc(CCC(N)=O)cc2C1
5%[70.6 µM]	CN(C)Cc1cc(CC2(NCc3ccc4c(c3)OCO4)COC2)no1
1%	COc1cccc(S(=O)(=O)N2CCCCC2c2nc(C3CC3)n[nH]2)c1 (stereo unspecified)
u	COc1ccc(CNC(=O)c2cc3c(n2C)CCN(Cc2ccccc2)C3)cc1OC
-3%	COc1ccc(CCc2nc3nccc(-c4ccco4)n3n2)cc1OC
0%	O=C(NCC1CCCN(Cc2cccc(-c3ccco3)c2)C1)c1cccs1 (stereo unspecified)
0%[70.6 µM]	CC(C)(CC(=O)O)CC(=O)N1CC[C@H]2NC(=O)N(c3ccccc3)C(=O)[C@H]21
0%[70.6 µM]	CN(Cc1ccccc1C(F)(F)F)C(=O)Nc1ccccc1
0%	CCOCc1nc(C2CCCN(C(=O)c3ccc(C)cc3)C2)no1 (stereo unspecified)
0%[70.6 µM]	Cc1cc(C(=O)N[C@H](C)c2onc(-c3ccc(F)cc3)c2C(=O)O)c(C)o1
-21%	COC(=O)C1=C(C)N=C2SC=C(CC(=O)N3CCCC3)N2C1c1ccccc1OC (stereo unspecified)
0%	CCc1ccc(CNC(=O)CN2C(=O)NC3(CCS(=O)(=O)CC3)C2=O)cc1
5%	Cn1nccc1CN1CCC2(CC1)CN[S+](=O)([O-])c1ccccc1N2
u	Cc1ccc(S(=O)(=O)N2CCCC(Cn3c(C)nc4cccnc43)C2)cc1C (stereo unspecified)
-14%[70.6 µM]	COc1ccc(O[C@H]2COCCN(C(=O)c3ccc(C(F)(F)F)cc3)C2)cc1
-2%	C=CCOc1ccc(CNC2CCN(S(C)(=O)=O)CC2)cc1CC=C
-2%	CCc1nc2c(c(-c3ccc(O)cc3)n1)CCN(C(=O)c1ccc(OC)cc1)CC2
2%[70.6 µM]	O=C(O)C[C@@H]1CCN(C(=O)Nc2ccccc2)C[C@@H]1CC1=NCCc2cc(F)ccc21
1%[70.6 µM]	COc1ccc2nc([C@H]3CCN(Cc4ccncc4)C3)[nH]c2c1
10%	COCCN1C(=O)CS(=O)C12CCN(C(=O)Nc1cccc(F)c1)CC2 (stereo unspecified)
29%	O=C(Nc1cccc(F)c1)N1CCCC1c1nc(C2CCOCC2)no1 (stereo unspecified)
8%[70.6 µM]	COCCN[C@H]1[C@@H]2OC[C@@H](O2)[C@@H](NCc2ccccn2)[C@@H]1O
1%	COC(=O)[C@@H]1C[C@@H](NC(=O)c2ccc(-c3nnn(C)n3)cc2)CN1C

Reformatted tab-delimited: part of the list above
Compound	NPR1 antag
O=C(O)C[C@@H]1CCN(C(=O)Nc2ccccc2)C[C@@H]1CC1=NCCc2cc(F)ccc21	2%[70.6 µM]
COc1ccc2nc([C@H]3CCN(Cc4ccncc4)C3)[nH]c2c1	1%[70.6 µM]
COCCN1C(=O)CS(=O)C12CCN(C(=O)Nc1cccc(F)c1)CC2 (stereo unspecified)	10%
O=C(Nc1cccc(F)c1)N1CCCC1c1nc(C2CCOCC2)no1 (stereo unspecified)	29%

Additional entries follow.
NPR1 antag	mol
-1%	COc1ccc(CCC(=O)N2CCC3(CC2)N(C)C(=O)CS3=O)cc1 (stereo unspecified)
-4%	COc1ccc(NC(=O)O[C@@H]2CO[C@H]3[C@@H]2OC[C@@H]3NS(=O)(=O)c2ccc3ccccc3c2)cc1
6%[70.6 µM]	O=C(N[C@H]1CO[C@H]2[C@@H]1OC[C@@H]2n1nnnc1-c1ccccc1)C1CC1
3%	CC(C)OCCCNC(=O)CCC1CCN(C(=O)c2ccccc2)CC1
-6%	COc1cccc(OCc2nc(C(=O)N3CCC4(CC3)CNC(=O)O4)co2)c1
-1%	COc1ccc(C(C)NC(=O)CN2C(=O)NC3(CCOCC3)C2=O)cc1 (stereo unspecified)
-17%	CC(C)c1ccc(CN2CCc3c(n(Cc4ccccc4)n(-c4ccccc4)c3=O)C2)cc1
1%	CC(C)CNC(=O)NC1CCN(C(=O)N2CC3CC(C2)[C@H]2CCCC(=O)N2C3)CC1 (stereo partly specified)
1%	COc1ccc(S(=O)(=O)N2CCc3c(C(=O)N4CCCC4)cccc32)cc1
3%	CCCN1CCC(N2CCCC(Cc3ccccc3)(C(=O)OCC)C2)CC1 (stereo unspecified)
5%	COCCn1nnnc1C1CC2(CCOCC2)C(=O)N1Cc1cc(F)cc(F)c1 (stereo unspecified)
2%	C1CC(OCC2CC2)CN1 (stereo unspecified)
9%[70.6 µM]	COC(=O)N1CCn2c(nn(-c3ccncc3)c2=O)C1
-3%	CCOc1ccc(-c2cccc3c2CCNC3)cc1C(N)=O
0%	COc1ccc(NC(=O)N2CCC(CC(=O)NCc3ccccc3)C2)cc1OC (stereo unspecified)
-2%	O=C(C1CCOCC1)N1CCC(Oc2ccccc2)C1 (stereo unspecified)
-14%	O=C(Cc1cccs1)N1CCCCCC1c1nc(C2CC2)no1 (stereo unspecified)
-1%	CCc1nc(-c2c3n(c(=O)n(CC(=O)Nc4cccc(Cl)c4)c2=O)CCCC3)no1
-3%	CC(C)(C)CC(=O)N1C[C@@H](NC(=O)Nc2ccc(F)cc2F)C[C@H]1C(=O)N[C@H](Cc1ccccc1)C(N)=O
2%	CCOCc1nc(C2CCCN2S(=O)(=O)c2cn(C)cn2)no1 (stereo unspecified)
-2%	Cc1ccccc1C(=O)N1CCCC2(C1)Nc1cccnc1NC2=NC1CCCC1 (stereo unspecified)
-11%	CCn1ccc(C(=O)N2CCCN(S(=O)(=O)c3ccccc3)CCC(=O)NCC2)n1
-1%	CC(C)CCC(=O)N1CCC2(CC1)Nc1ccccc1NC2=O
-3%	COc1ccccc1CCC(=O)NC1CCN(c2cc(C(F)(F)F)nc(C)n2)CC1
-27%	Cc1cc(C)cc(C(=O)N2CCCN(c3cc(-c4ccc(Cl)cc4)[nH]n3)CC2)c1
u	Cc1noc(C)c1-c1cc(-c2cccc3cc[nH]c23)cn2cncc12
1%	Cc1ccc(NC(=O)c2cc3c(N4CCSCC4)nc(C)cn3n2)c(F)c1
-5%	O=C1Nc2ccc(-c3cccc(C(F)(F)F)c3)cc2C(=O)N2CCN(C(=O)COc3ccccc3)C[C@H]12
-30%	O=C(CCc1nc(C2CC(=O)N(C3CCCCC3)C2)no1)c1ccc(Cl)cc1 (stereo unspecified)
2%	COCCN(C)Cc1cn(Cc2ccccc2)nc1-c1ccc2c(c1)OCO2

Overlap with the part before: 3 compounds, followed by the next part.
NPR1 antag	mol
-5%	O=C1Nc2ccc(-c3cccc(C(F)(F)F)c3)cc2C(=O)N2CCN(C(=O)COc3ccccc3)C[C@H]12
-30%	O=C(CCc1nc(C2CC(=O)N(C3CCCCC3)C2)no1)c1ccc(Cl)cc1 (stereo unspecified)
2%	COCCN(C)Cc1cn(Cc2ccccc2)nc1-c1ccc2c(c1)OCO2
2%	O=C(NC1CCCC1)C1CC(=O)N(c2n[nH]c3ccccc23)C1 (stereo unspecified)
1%	CC1CCN(C(=O)C[C@@H]2c3nc(NC(=O)c4ccco4)sc3C[C@@H]3[C@](C)(CO)[C@H](O)CC[C@]32C)CC1
-2%	CCn1cc(S(=O)(=O)N2CCCCCCNC(=O)[C@@H]3CCC[C@@H]32)cn1
-2%	COc1ccc(Cn2c(C3CCN(C(=O)C4(c5ccccc5)CC4)CC3)n[nH]c2=O)cc1
1%	C=C(C)CNCC1(O)CCCN(Cc2cccc(F)c2F)C1=O (stereo unspecified)
4%[70.6 µM]	CC(=O)Nc1cccc(-c2ncc3c(n2)OCCN(c2ccccc2)C3=O)c1
7%	COCCN1CCC(CN(Cc2ccncc2)C(=O)c2cnco2)CC1
0%	Cc1c(Cn2cc(-c3cncnc3)nn2)oc2ccccc12
-1%	Cc1ccc(C(=O)N2CCC3(CC2)SCC(=O)N3c2ccc(Cl)cc2)cc1[N+](=O)[O-]
8%[70.6 µM]	CC(=O)Nc1ccc([C@H]2OCC(=O)N(CCN)[C@@H]2CO)cc1
-2%	O=C1N[C@H](CC(=O)N2CCC(c3noc4cc(F)ccc34)CC2)C(=O)Nc2ccccc21
2%	Cc1ccc(-n2c(C3CCN(C(=O)c4ccc(F)cc4)CC3)n[nH]c2=O)cc1
3%	Cc1ccc(Cn2c(C3CCN(C(=O)c4ccccc4Cl)CC3)n[nH]c2=O)cc1
3%	CC(C)(C)N1CC(C(=O)NCCCc2ccccc2F)CC1=O (stereo unspecified)
3%[70.6 µM]	COCCNC(=O)C[C@@H]1C[C@H]2O[C@H](CNC3CCN(C(C)=O)CC3)[C@@H](O)[C@H]2O1
2%	O=C1CN(C(=O)c2cncs2)CC(OCc2cccc(F)c2)CN1CCc1ccccc1 (stereo unspecified)
0%	CN(C)CCN(C)C[C@@H]1CN(C(=O)c2ccc(=O)n(C)c2)C[C@@H]1CO
0%	CC1CCCN(c2ncnc3c2CN(c2ccccc2)C(=O)N(C)C3)C1 (stereo unspecified)
